Source: PubChem (ICCB-Longwood Screening Facility, Harvard Medical School)
BmaI1 – BmaI1 acyl-homoserine lactone synthase inhibition – biochemical, fluorescence intensity, with counterscreen (AID 720554). inhibition, %. BmaI1 enzyme assay, fluorescence intensity; active compounds read high; test concentration not given here; a few actives read low; strong numbers were not always called active. 0.4% of 12,000 active;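 active means both replicates within 2 robust z-scores of the inhibited control and a quiet counterscreen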;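 further: 0% = uninhibited enzyme and 100% = inhibited control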
BmaI1 counterscreen – further read-out of BmaI1, marked with its call; inhibition, %; measured here: counterscreen; design of the counterscreen not given here;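 first of two replicates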
The depositor's hits bear a star. These rows are one share of the data, so the mix of outcomes need not match the whole.

1. c1ccc(C2CCC(=NN3CCOCC3)CC2)cc1 (configuration not stated)
  BmaI1: -51.5; BmaI1 counterscreen: -69.5
2. CCCn1c(CCC(=O)N(C)c2ccccc2)nc2cc(S(=O)(=O)N3CCCC3)ccc21
  BmaI1: 37.0; BmaI1 counterscreen: -2.5
3. Nc1nc(Cl)nc2c1ncn2[C@H]1C[C@H](O)[C@@H](CO)O1
  BmaI1: 0.0; BmaI1 counterscreen: 8.0
4. COc1cc(SC)ccc1C(=O)OCC(=O)c1ccccc1
  BmaI1: 15.0; BmaI1 counterscreen: 15.0
5. Cc1ccc(CNC(=O)CC2(CC(=O)O)CCCC2)cc1
  BmaI1: 9.0; BmaI1 counterscreen: 2.5
6. Cc1sc(NC(=O)Cn2c(=O)cnc3ccccc32)c(C#N)c1C
  BmaI1: 11.0; BmaI1 counterscreen: 14.0
7. O=C(CSc1nnc2sc3ccccc3n12)NC(=O)c1ccc(OC(F)F)cc1
  BmaI1: 2.5; BmaI1 counterscreen: 4.5
8. O=C(CSc1nnc2ccccn12)Nc1ccc2c(c1)OC(F)(F)O2
  BmaI1: 1.0; BmaI1 counterscreen: 3.0
9. Clc1nc2ccc3nsnc3c2nc1Cl
  BmaI1: 39.0; BmaI1 counterscreen: 1.5
10. COC(=O)[C@H](c1ccccc1Cl)N1CCc2sccc2C1
  BmaI1: -7.0; BmaI1 counterscreen: -2.0
11. CC1CCCN(C(=O)c2ccc3ncsc3c2)C1 (configuration not stated)
  BmaI1: 6.0; BmaI1 counterscreen: -2.0
12. CC(NC(=O)c1ccc(=O)n(C)n1)C1CC2CCC1C2 (configuration not stated)
  BmaI1: 4.0; BmaI1 counterscreen: 6.0
13. Cc1ccc(NC(=O)c2ccccc2S(C)(=O)=O)cc1
  BmaI1: 5.0; BmaI1 counterscreen: 7.0
14. S=c1[nH]cc2ccccn12
  BmaI1: 96.5*; BmaI1 counterscreen: 5.5*
15. Cc1ccc(NC(=O)CN(C)C(=O)Cn2ncc(Cl)c(Cl)c2=O)cc1
  BmaI1: 11.0; BmaI1 counterscreen: 7.5
16. Cc1ccc(NC(=O)CN(C)C(=O)Cn2c(=O)cnc3ccccc32)cc1
  BmaI1: 8.0; BmaI1 counterscreen: 8.0
17. CC(C)CCNC(=O)C1=CC=CN2CCS(=O)(=O)N=C12
  BmaI1: 15.5; BmaI1 counterscreen: 7.0
18. COc1ccccc1-n1c(SCc2csc(NC(C)=O)n2)nnc1-c1cccs1
  BmaI1: 17.5; BmaI1 counterscreen: -1.5
19. Cn1c(SCc2nc3ccccc3o2)nnc1C(F)(F)F
  BmaI1: 7.0; BmaI1 counterscreen: -3.0
20. CC1NC(=S)N(Cc2ccccc2)C1=O (configuration not stated)
  BmaI1: -79.5; BmaI1 counterscreen: -85.5
21. Cc1ccc(NCc2ccccc2)cc1
  BmaI1: 20.0; BmaI1 counterscreen: -6.5
22. O=C(CNCC1(N2CCOCC2)CCCCC1)Nc1ccc(Cl)cc1
  BmaI1: -7.0; BmaI1 counterscreen: -3.0
23. C=CCn1c(=O)c2ccccc2n2c(SC3CCOC3=O)nnc12 (configuration not stated)
  BmaI1: -7.5; BmaI1 counterscreen: -5.5
24. CCOC(=O)c1ccccc1NC(=O)Cn1ccsc1=N
  BmaI1: -2.5; BmaI1 counterscreen: -3.0
25. CC(Sc1nnnn1C)C(=O)NCC1CCCCC1 (configuration not stated)
  BmaI1: 8.5; BmaI1 counterscreen: 10.5

26. COCCn1c(SCC(=O)NCc2ccccc2)nc2ccccc21
  BmaI1: 0.5; BmaI1 counterscreen: -1.0
27. Cc1cc(=O)[nH]c(SCC(=O)NCC2CCCCC2)c1C#N
  BmaI1: 15.0; BmaI1 counterscreen: 11.0
28. CC(=O)Nc1ccc(S(=O)(=O)N[C@@H](C)C(=O)NC2CCCc3ccccc32)cc1 (some centres not stated)
  BmaI1: 4.0; BmaI1 counterscreen: 9.0
29. CC(C)(C)SCC(=O)Nc1nc(-c2cccs2)c(-c2cccs2)s1
  BmaI1: 7.5; BmaI1 counterscreen: 21.5
30. CN(CCOc1ccccc1)C(=O)c1ccc2c(c1)OCO2
  BmaI1: 7.5; BmaI1 counterscreen: 6.5
31. C=CCNC(=O)CSc1nc2ccccc2[nH]1
  BmaI1: -9.5; BmaI1 counterscreen: -5.5
32. CC(NC(=O)COc1ccccc1)C(=O)N1CCN(S(=O)(=O)c2cccs2)CC1 (configuration not stated)
  BmaI1: -6.5; BmaI1 counterscreen: 36.5
33. Cc1cccc(-n2c(SC3CCOC3=O)nnc2-c2c[nH]c3ccccc23)c1 (configuration not stated)
  BmaI1: 15.0; BmaI1 counterscreen: 10.0
34. O=C(CN(Cc1ccco1)Cc1cccs1)c1ccc[nH]1
  BmaI1: 9.0; BmaI1 counterscreen: 8.5
35. Cn1cc(C(=O)OCC(N)=O)c2ccccc21
  BmaI1: 7.0; BmaI1 counterscreen: -2.0
36. O=C1CCC(C(=O)Nc2ccc(S(=O)(=O)NCc3ccco3)cc2)=NN1
  BmaI1: 11.0; BmaI1 counterscreen: 18.5
37. Nc1cc(N)nc(SCC(=O)N2CCCC2c2ccc3c(c2)OCCCO3)n1 (configuration not stated)
  BmaI1: 6.0; BmaI1 counterscreen: -1.0
38. CC(C)(C)C(=O)Nc1nc2ccccc2s1
  BmaI1: 18.0; BmaI1 counterscreen: 13.5
39. CCSc1nnc(SCC(=O)c2ccc(OC)cc2OC)s1
  BmaI1: 1.5; BmaI1 counterscreen: 6.5
40. CC1C(=O)NC(=O)N1c1ccc(Cl)cc1 (configuration not stated)
  BmaI1: -1.0; BmaI1 counterscreen: 0.0
41. CC(SCc1nc2sc3c(c2c(=O)[nH]1)CCCC3)C(=O)Nc1nccs1 (configuration not stated)
  BmaI1: 4.5; BmaI1 counterscreen: 1.0
42. O=C(OCN1C(=O)c2ccccc2C1=O)c1cccc(S(=O)(=O)N2CCCC2)c1
  BmaI1: -2.0; BmaI1 counterscreen: 3.0
43. Cc1nn(-c2ccccc2)c2c1CC(C#N)(c1ccccn1)C1CCCN21 (configuration not stated)
  BmaI1: 10.0; BmaI1 counterscreen: 3.0
44. O=C(OCn1nnc2ccccc2c1=O)C1CSC2(c3ccc(F)cc3)CCC(=O)N12 (configuration not stated)
  BmaI1: 11.5; BmaI1 counterscreen: 1.5
45. FC(F)(F)c1nc(NCCc2ccccn2)c2ccccc2n1
  BmaI1: 19.0; BmaI1 counterscreen: 6.0
46. CCCOc1ccc(-c2nn(-c3ccccc3)cc2/C=C(\C#N)C(=O)NCc2ccco2)cc1
  BmaI1: 10.0; BmaI1 counterscreen: 7.5
47. N#Cc1ccc(NC(=O)COC(=O)CSc2ccccc2)cc1
  BmaI1: 30.5; BmaI1 counterscreen: 2.0
48. CCOC(=O)c1ccc(-c2ccc(-c3nc4cc(C(=O)OCC)ccc4n3CC)o2)cc1
  BmaI1: 9.5; BmaI1 counterscreen: 9.0
49. O=C(N[C@@H](Cc1ccccc1)C(=O)Nc1nccs1)c1cccs1
  BmaI1: 18.5; BmaI1 counterscreen: 25.5
50. O=C(/C=C/c1ccccc1F)CN1C(=O)c2ccccc2C1=O
  BmaI1: 19.0; BmaI1 counterscreen: 9.5

Values in list order from the entries so far.
Nos. 20–31 in BmaI1 counterscreen: -85.5, -6.5, -3.0, -5.5, -3.0, 10.5, -1.0, 11.0, 9.0, 21.5, 6.5, -5.5
Nos. 20–31 in BmaI1: -79.5, 20.0, -7.0, -7.5, -2.5, 8.5, 0.5, 15.0, 4.0, 7.5, 7.5, -9.5

Given with two lines to a compound: entries from further up
Every second line gives: BmaI1 | BmaI1 counterscreen
[35] Cn1cc(C(=O)OCC(N)=O)c2ccccc21
 : 7.0 | -2.0
[36] O=C1CCC(C(=O)Nc2ccc(S(=O)(=O)NCc3ccco3)cc2)=NN1
 : 11.0 | 18.5
[37] Nc1cc(N)nc(SCC(=O)N2CCCC2c2ccc3c(c2)OCCCO3)n1 (configuration not stated)
 : 6.0 | -1.0
[38] CC(C)(C)C(=O)Nc1nc2ccccc2s1
 : 18.0 | 13.5
[39] CCSc1nnc(SCC(=O)c2ccc(OC)cc2OC)s1
 : 1.5 | 6.5
[40] CC1C(=O)NC(=O)N1c1ccc(Cl)cc1 (configuration not stated)
 : -1.0 | 0.0

From no. 46 as far as 50, copied from above:
46. CCCOc1ccc(-c2nn(-c3ccccc3)cc2/C=C(\C#N)C(=O)NCc2ccco2)cc1
  BmaI1: 10.0; BmaI1 counterscreen: 7.5
47. N#Cc1ccc(NC(=O)COC(=O)CSc2ccccc2)cc1
  BmaI1: 30.5; BmaI1 counterscreen: 2.0
48. CCOC(=O)c1ccc(-c2ccc(-c3nc4cc(C(=O)OCC)ccc4n3CC)o2)cc1
  BmaI1: 9.5; BmaI1 counterscreen: 9.0
49. O=C(N[C@@H](Cc1ccccc1)C(=O)Nc1nccs1)c1cccs1
  BmaI1: 18.5; BmaI1 counterscreen: 25.5
50. O=C(/C=C/c1ccccc1F)CN1C(=O)c2ccccc2C1=O
  BmaI1: 19.0; BmaI1 counterscreen: 9.5

(further entries)
51. CNS(=O)(=O)c1cccc(C(=O)NCCCN2CCCC2=O)c1
  BmaI1: 8.5; BmaI1 counterscreen: 4.0
52. Cc1nn(-c2ccccc2)c2c1C(c1ccc(Cl)cc1)N1C(=N2)C(=O)Nc2ccccc21 (configuration not stated)
  BmaI1: 5.5; BmaI1 counterscreen: 2.0
53. O=C1c2ccccc2C(=O)c2c1oc1c3c(ccc21)OCN(CCCN1CCOCC1)C3
  BmaI1: 20.5; BmaI1 counterscreen: -4.5
54. Cc1noc(C)c1S(=O)(=O)NCc1ccc2c(c1)OCO2
  BmaI1: 16.5; BmaI1 counterscreen: 16.0
55. O=C(Cn1nc(-c2ccccc2)oc1=O)OCC(=O)c1ccccc1
  BmaI1: 15.0; BmaI1 counterscreen: 7.0
56. CCN1CCSC1=Nc1ccc(OC)cc1
  BmaI1: -3.5; BmaI1 counterscreen: -7.0
57. Clc1ccc2nsnc2c1NC1=NCCN1
  BmaI1: 9.5; BmaI1 counterscreen: 22.5
58. COc1ccc(C(=O)OCC(N)=O)cc1S(=O)(=O)N1CCCc2ccccc21
  BmaI1: 13.5; BmaI1 counterscreen: 1.0
59. COc1ccc(-c2n[nH]c(=S)n2CCC(=O)NC(C)c2ccccc2)cc1 (configuration not stated)
  BmaI1: 58.0; BmaI1 counterscreen: 45.5
60. COC(=O)C(OC(=O)c1ccc(-n2cccn2)cc1)c1ccccc1 (configuration not stated)
  BmaI1: 22.0; BmaI1 counterscreen: 11.0
61. C/C(=N\NC(=O)Cc1nc2ccccc2n1C)c1ccc(S(=O)(=O)NCCC(=O)O)cc1
  BmaI1: 7.5; BmaI1 counterscreen: 6.5
62. CCN(CC)S(=O)(=O)c1ccc(/C=C/C(=O)N=c2sccn2C)cc1
  BmaI1: 20.5; BmaI1 counterscreen: 11.5
63. COC(=O)Cn1c(=S)[nH]c2ccccc2c1=O
  BmaI1: 2.5; BmaI1 counterscreen: 0.0
64. COc1ccc(C(=O)OC2CCCCC2=O)cc1OC (configuration not stated)
  BmaI1: 15.0; BmaI1 counterscreen: 4.5
65. O=c1c2ccccc2c(/C=N/n2cnnc2)c(O)n1-c1ccccc1
  BmaI1: 14.0; BmaI1 counterscreen: 0.0
66. CC(C)C(=O)NCCc1ccc(S(N)(=O)=O)cc1
  BmaI1: 2.0; BmaI1 counterscreen: -5.0
67. C[C@]12CC[C@H](O)CC1=CC[C@@H]1[C@@H]2CC[C@@]2(C)[C@H]1CC[C@]2(C)O
  BmaI1: 8.5; BmaI1 counterscreen: -0.5
68. O=C(CNC(=O)c1ccc(Br)o1)NC1CCCc2ccccc21 (configuration not stated)
  BmaI1: 6.0; BmaI1 counterscreen: 2.5
